Source: PubChem BioAssay
2A firefly: lowers the firefly signal of an FMDV 2A StopGo reporter. HEK cells with a luciferase reporter of 2A StopGo recoding. Potency, µM (titrated, usually from 57.5 µM), without a hit: top-dose signal change, negative = less light. 0.23% of 120,000 active. AID 1745856; active = well fitted falling curve with a large enough effect; inconclusive = small, poorly fitted or top-dose-only effect; inactive = no such curve, though single readings can be large or run the other way; also: nearly all actives have a fitted effect of over 60% in size; overnight with compound
StopGo RLuc: FMDV 2A StopGo reporter, Renilla signal. 0.32% of 120,000 active. Potency, µM (top dose mostly 57.5 µM), without a hit: at the highest dose signal change, negative = less light. HEK cells with a luciferase reporter of 2A StopGo recoding; active means well fitted falling curve with a large enough effect; inconclusive means small, poorly fitted or top-dose-only effect; inactive means no such curve, though single readings can be large or run the other way; also: nearly all actives have a fitted effect of over 55% in size; overnight with compound
Starred values were filed as active, the others as inactive; & = joins results of further samples; [ ] = another dose, or the depositor's remark. % is scaled to controls: 0 for no effect and ±100 for the full control effect; potency is read from the fitted curve at half-maximal effect.

CCOc1ccc(CNC(=O)Cn2nc(N3CCN(c4ccccc4)CC3)ccc2=O)cc1 was read as 2A firefly inconclusive and StopGo RLuc inconclusive.
For CC(C)C(NC(=O)COc1cc(Cl)ccc1Cl)c1nc2ccccc2[nH]1 (centres undefined) the results were 2A firefly 6.1% and StopGo RLuc -8.2%.
Screening O=S(=O)(Nc1nc2ccccc2nc1Nc1cccc(Br)c1)c1cccs1 returned 2A firefly 14.0% and StopGo RLuc 9.6%.
For Cc1ccc2c(CC(=O)N(Cc3cccc(Cl)c3)C3CCS(=O)(=O)C3)coc2c1 (centres undefined) the results were 2A firefly -7.2% and StopGo RLuc -5.8%.
`O=C(NCc1cccc(Br)c1)C1CCCCN1S(=O)(=O)c1ccc(F)cc1` (centres undefined) gave 2A firefly -6.9% and StopGo RLuc -1.7%.
Screening O=c1c2sc3ccccc3c2n(Cc2ccc(F)cc2Cl)c(=O)n1Cc1ccccc1 returned 2A firefly -19.7% and StopGo RLuc -7.8%.
`CCCNC(=O)c1ccc(CSC)o1` gave 2A firefly 0.0% and StopGo RLuc 12.2%.
Screening Cc1cc2oc(=O)cc(CSc3nncs3)c2cc1C returned 2A firefly 24.3% and StopGo RLuc 27.4%.
`O=C(COC(=O)c1ccc(OCC2CCCO2)cc1)c1ccc2c(c1)OCO2` (centres undefined) gave 2A firefly 13.3% and StopGo RLuc 21.6%.
Screening Cc1ccc(NC(=O)CCc2ncc(-c3ccccc3F)o2)c(C)c1 returned 2A firefly 7.5% and StopGo RLuc -3.2%.
For CC(NC(=O)CSc1nnc(COc2ccc(Cl)cc2)n1C)c1cccc2ccccc12 (centres undefined) the results were 2A firefly -5.0% and StopGo RLuc 59.5%[activator].
For COc1ccc(CNc2nc(NCc3ccc(OC)cc3)n(S(=O)(=O)c3ccc(C)cc3)n2)cc1 the results were 2A firefly -16.2% and StopGo RLuc 6.3%.
Screening C=CCC(NC(C)=O)C(=O)O (centres undefined) returned 2A firefly -2.7% and StopGo RLuc -7.5%.
Screening CCn1c(CN2CCN(C)CC2)nc2ccccc21 returned 2A firefly -11.8% and StopGo RLuc -0.2%.
Screening COc1ccc(CCNC(=O)CCS(=O)(=O)c2ccc3c(c2)oc(=O)n3C)cc1OC returned 2A firefly -1.3% and StopGo RLuc -13.9%.
`O=C(Nc1c(NCC2CCCCC2)c2ccccc2oc1=O)c1cccs1` gave 2A firefly -0.4% and StopGo RLuc -0.1%.
For CN1CCN(C(=O)CCn2cnc3c2c(=O)n(C)c(=O)n3C)CC1 the results were 2A firefly -4.4% and StopGo RLuc -2.1%.
Screening Cc1ccc(C(=O)Nc2nc(-c3nnn(-c4ccc(F)cc4F)c3C)ns2)cc1C returned 2A firefly 10.6% and StopGo RLuc 6.3%.
For Cc1cccc(-n2c(=O)c3c(c4cc(C)ccc4n3C)n(CC(=O)Nc3ccc(C)c(C)c3)c2=O)c1 the results were 2A firefly -9.5% and StopGo RLuc -8.8%.
Screening CC(=O)C1=C(C)CC2C3CC=C4CC(O)CCC4(C)C3CCC12C (centres undefined) returned 2A firefly 3.8% and StopGo RLuc 16.0%.

Five records picked at random from those above:
Screening CCn1c(CN2CCN(C)CC2)nc2ccccc21 returned 2A firefly -11.8% and StopGo RLuc -0.2%.
Screening O=c1c2sc3ccccc3c2n(Cc2ccc(F)cc2Cl)c(=O)n1Cc1ccccc1 returned 2A firefly -19.7% and StopGo RLuc -7.8%.
CCOc1ccc(CNC(=O)Cn2nc(N3CCN(c4ccccc4)CC3)ccc2=O)cc1 was read as 2A firefly inconclusive and StopGo RLuc inconclusive.
For Cc1cccc(-n2c(=O)c3c(c4cc(C)ccc4n3C)n(CC(=O)Nc3ccc(C)c(C)c3)c2=O)c1 the results were 2A firefly -9.5% and StopGo RLuc -8.8%.
Screening COc1ccc(CCNC(=O)CCS(=O)(=O)c2ccc3c(c2)oc(=O)n3C)cc1OC returned 2A firefly -1.3% and StopGo RLuc -13.9%.

Further entries.
`NCCCCn1ccnc1` gave 2A firefly -9.3% and StopGo RLuc -6.5%.
Screening O=C(NCc1ccncc1)c1cc(-c2ccncc2)nc2ccccc12 returned 2A firefly 16.9% and StopGo RLuc 11.3%.
COC(=O)C(NC=O)C(O)(C#Cc1ccccc1)C(F)(F)F (centres undefined) was read as 2A firefly 0.0% and StopGo RLuc -3.2%.
For CCOc1ccc(CNC(=O)Cc2ccc(NC(=O)N3CCSc4ncccc43)cc2)cc1 the results were 2A firefly 5.9% and StopGo RLuc -18.9%.
`COc1ccc(S(=O)(=O)N(CC(=O)N(C)Cc2ccccc2)c2ccc(Cl)cc2)cc1` gave 2A firefly -3.5% and StopGo RLuc 186.6%[activator].
For CNc1snc(C)c1C(=O)NCCc1ccccc1 the results were 2A firefly 62.7%[activator] and StopGo RLuc -3.6%.
For CC(C)c1cccc(C(C)C)c1NC(=O)c1cccs1 the results were 2A firefly 0.0% and StopGo RLuc 1.1%.
Screening O=C(c1ccccc1F)N1CCN(C(=O)c2c[nH]c3ccccc23)CC1 returned 2A firefly -24.8% and StopGo RLuc -25.2%.
COC(=O)c1ccccc1NC(=O)CN(c1ccnn1C(C)C)S(=O)(=O)c1ccccc1 was read as 2A firefly 12.0% and StopGo RLuc 12.8%.
For Cc1cc(NC(=O)CSc2nc3c([nH]c4ccccc43)c(=O)n2-c2ccccc2F)no1 the results were 2A firefly inconclusive and StopGo RLuc -27.3%.
For O=c1cc(-c2ccccc2)n2c(SCc3ccc(F)cc3)nnc2[nH]1 the results were 2A firefly 0.0% and StopGo RLuc 10.5%.
`CCc1ccc(-c2noc(CCC(=O)Nc3nc4ccccc4n3CC)n2)cc1` gave 2A firefly 2.1% and StopGo RLuc -13.4%.
O=C(c1cccs1)N1N=C(c2ccc(Cl)cc2)CC1c1ccc2nccnc2c1 (centres undefined) was read as 2A firefly 27.3% and StopGo RLuc -15.9%.
`COc1ccc(C(=O)Oc2ccc(C)cc2)cc1` gave 2A firefly 5.3% and StopGo RLuc 0.8%.
For CC(Sc1ccc(C#N)cc1)C(=O)NC1CCCC1 (centres undefined) the results were 2A firefly -1.4% and StopGo RLuc -18.1%.
Clc1ccc2c(c1)C(c1ccccc1Cl)=Nc1ccc(Cl)cc1C(c1ccccc1Cl)=N2 was read as 2A firefly 24.6% and StopGo RLuc 9.0%.
COc1ccc(-c2noc(CCC(=O)NCC3CCCO3)n2)cc1OC (centres undefined) was read as 2A firefly -0.8% and StopGo RLuc -1.9%.
`Cc1cc(C(=O)Nc2cccc(C)c2C)c2c(C)nn(-c3cccc(F)c3)c2n1` gave 2A firefly 2.3% and StopGo RLuc -0.1%.
`O=C(O)c1ccc2ncccc2c1` gave 2A firefly 0.0% and StopGo RLuc 143.8%[activator].
Screening CCC1CN(C(=O)N2CCC(C(=O)NCc3ccc(OC)cc3OC)CC2)c2cc(C)ccc2O1 (centres undefined) returned 2A firefly -14.1%&-24.3% and StopGo RLuc -5.4%&35.9%.
Screening Cc1sc2ncn(CC(=O)Nc3cccc(C(F)(F)F)c3)c(=O)c2c1S(=O)(=O)N1CCC(C)CC1 returned 2A firefly -6.0% and StopGo RLuc -10.7%.
`Cc1ccc(CN(Cc2ccco2)C(=O)COc2c(C)cc(C)cc2C)cc1` gave 2A firefly 0.0% and StopGo RLuc 0.0%.
Cc1ccc(Sc2ccc(N3CCC(C(=O)Nc4ccc(C)c(F)c4)CC3)nn2)cc1 was read as 2A firefly -9.5% and StopGo RLuc -5.1%.
COc1ccccc1Oc1coc2cc(OC(=O)c3ccccc3F)ccc2c1=O was read as 2A firefly 19.2% and StopGo RLuc 2.5%.
`Cc1ccc(-c2noc(-c3cccc(Br)c3)n2)cc1` gave 2A firefly 263.5%[activator] and StopGo RLuc 3.0%.
COc1ccc(CNCc2ccc3c(c2)n(C)c(=O)n3C)cc1 was read as 2A firefly 1.2% and StopGo RLuc -8.1%.
Cc1ncc(-c2ccc(S(=O)(=O)Nc3ccccc3)cc2)o1 was read as 2A firefly 7.3% and StopGo RLuc 160.5%[activator].
`Cc1ccc(C)c(N2CCN(C(=O)C3CCN(S(=O)(=O)c4ccc5[nH]c(=O)oc5c4)CC3)CC2)c1` gave 2A firefly -26.8% and StopGo RLuc -29.3%.
For Cc1ccccc1NC(=O)/C(C#N)=C/c1ccc(Cl)cc1Cl the results were 2A firefly -19.6% and StopGo RLuc 25.2%.
COC(=O)c1cccc(NC(=O)C2CCCN(S(=O)(=O)Cc3ccccc3Cl)C2)c1C (centres undefined) was read as 2A firefly 6.2% and StopGo RLuc 11.4%.
Screening O=C(O)CCC(NC(=O)c1ccc(-c2ccc(Cl)cc2)s1)C(=O)O (centres undefined) returned 2A firefly 11.4% and StopGo RLuc 2.0%.
For COc1cccc(NC(=O)c2sc3nc(N4CCOCC4)c4c(c3c2N)CC(C)(C)OC4)c1 the results were 2A firefly 0.0% and StopGo RLuc -10.1%.
`O=C(CCC(=O)N1Cc2ccccc2Oc2ncccc21)Nc1ccc(Cl)cc1` gave 2A firefly 0.0% and StopGo RLuc 13.8%.
`Fc1ccc(-c2nc(CSc3ncn[nH]3)co2)cc1` gave 2A firefly 10.9% and StopGo RLuc -31.5%.
COc1cccc(-n2cc(C(=O)Nc3cccc(C(F)(F)F)c3)c3ccccc3c2=O)c1 was read as 2A firefly -18.7% and StopGo RLuc -21.3%.
For COc1cc(OC)cc(C(=O)Nc2ccc3oc(-c4ccc(OC)c(Cl)c4)nc3c2)c1 the results were 2A firefly 62.4%[activator] and StopGo RLuc -0.5%.
Screening CCc1ccc2c(c1)NC(c1ccc(OC)cc1)=NC(c1ccncc1)=N2 returned 2A firefly 74.6%[activator] and StopGo RLuc 51.6%[activator].
COc1cccc(/C=C/c2nc(C#N)c(N3CCN(Cc4ccccc4)CC3)o2)c1 was read as 2A firefly 2.3% and StopGo RLuc -8.8%.
`Cc1c(-c2ccccc2)nc2ccc(Br)cc2c1C(=O)O` gave 2A firefly 2.6% and StopGo RLuc -3.4%.
COc1ccc(N2CC(NC(=O)C(c3ccccc3)c3ccccc3)CC2=O)cc1OC (centres undefined) was read as 2A firefly -11.8% and StopGo RLuc 2.0%.

3 compounds already listed, arranged by count of non-hydrogen atoms, low to high:
`Cc1ccc(CN(Cc2ccco2)C(=O)COc2c(C)cc(C)cc2C)cc1` gave 2A firefly 0.0% and StopGo RLuc 0.0%.
Cc1ccc(Sc2ccc(N3CCC(C(=O)Nc4ccc(C)c(F)c4)CC3)nn2)cc1 was read as 2A firefly -9.5% and StopGo RLuc -5.1%.
Screening Cc1sc2ncn(CC(=O)Nc3cccc(C(F)(F)F)c3)c(=O)c2c1S(=O)(=O)N1CCC(C)CC1 returned 2A firefly -6.0% and StopGo RLuc -10.7%.

Further structures
Screening Cc1ccc(N2CCN(C(=O)c3cnc(N4CCCCC4)c4ccccc34)CC2)c(C)c1 returned 2A firefly -1.4%&-6.9% and StopGo RLuc 63.8%&33.7%[activator].
`O=C(O)Cc1ccccc1Oc1ccc(Cl)cc1Cl` gave 2A firefly -15.0% and StopGo RLuc -4.6%.
COC(=O)c1c(-c2cccs2)csc1NC(=O)c1ccc(C)cc1 was read as 2A firefly 1.4% and StopGo RLuc -3.4%.
`CCc1ccccc1NC(=O)CN1C(=O)CCn2nc(-c3cccn3C)cc21` gave 2A firefly -11.2% and StopGo RLuc -15.9%.
`COc1ccc(C(=O)COC(=O)Cc2coc3ccc4ccccc4c23)cc1OC` gave 2A firefly 2.7% and StopGo RLuc 7.2%.
Screening COC(=O)c1ccc(OCC(=O)c2ccc3c(c2)OCCO3)cc1 returned 2A firefly 25.3% and StopGo RLuc 20.4%.
CC(=O)Nc1cc(F)ccc1-c1csc(NC(=O)CCc2ccccc2)n1 was read as 2A firefly -3.3% and StopGo RLuc -17.8%.
Screening Clc1ccc(Nc2nnc(Cc3ccncc3)c3ccccc23)cc1 returned 2A firefly -22.7% and StopGo RLuc 10.0%.
COc1cc(C)c(C)cc1S(=O)(=O)N1CCN(c2c(C)cccc2C)CC1 was read as 2A firefly 2.2% and StopGo RLuc 38.2%.
Screening CC(C)(C)C(=O)Nc1cccc(C(=O)OCc2cc(=O)n3nc(C4CCCCC4)sc3n2)c1 returned 2A firefly 16.5% and StopGo RLuc 7.6%.
For C#CCCCCCCCCC(=O)N1CCOCC1 the results were 2A firefly 57.3%[activator] and StopGo RLuc 13.9%.
`Cc1ccc(CNC(=O)c2ccc(CSCc3ccc(C)cc3)o2)cc1` gave 2A firefly 10.0%&-18.5% and StopGo RLuc 9.5%&136.8%.
CN1C(=O)N(c2ccc(Cl)c(Cl)c2)C(C)(O)CC1(C)C (centres undefined) was read as 2A firefly 28.0% and StopGo RLuc 0.3%.
O=C(Cn1c(=O)oc2ccccc21)Nc1ccc(-c2nnc3n2CCCCC3)cc1 was read as 2A firefly 14.0% and StopGo RLuc 43.5%[activator].
`COc1ccc(-c2ccnc3c2c(=O)n(C)c(=O)n3C)cc1OC` gave 2A firefly -14.9% and StopGo RLuc -7.9%.
For Cc1c(CC(=O)O)c(=O)oc2c(C)c(OCc3ccccc3F)ccc12 the results were 2A firefly 0.0% and StopGo RLuc 4.6%.
Screening CC(=O)c1ccc(S(=O)(=O)Oc2ccc3ccc(=O)oc3c2)cc1 returned 2A firefly -2.3% and StopGo RLuc 5.1%.
Cc1[nH]c2ccccc2c1C1c2ccccc2C(=O)N1CC(=O)N1CCN(C=O)CC1 (centres undefined) was read as 2A firefly -5.7% and StopGo RLuc -7.9%.
CCc1ccccc1NC(=O)c1ccc2c(c1)N(Cc1cccc(Cl)c1)C(=O)c1ccccc1S2(=O)=O was read as 2A firefly -8.4% and StopGo RLuc 11.3%.
CC(=O)NCCCCCC(=O)NC(C)C(C)(C)c1ccccc1 (centres undefined) was read as 2A firefly 0.0% and StopGo RLuc 6.2%.
Screening CC(O)CNc1ncnc2c1oc1nc(C(C)C)c3c(c12)CCC3 (centres undefined) returned 2A firefly 41.5%[activator] and StopGo RLuc 0.0%.
`Cc1ccc2[nH]c(C(=O)NCc3cccs3)cc2c1` gave 2A firefly 0.0% and StopGo RLuc 0.0%.

This is a subset; rates above refer to the full screens.
